# High-throughput results deposited in PubChem by National Center for Advancing Translational Sciences (NCATS).
# GLA inh pH 4.5 = qHTS Assay for Inhibitors of Human alpha-Galactosidase at pH 4.5. Alpha-galactosidase A (Homo sapiens), P06280. purified enzyme, 4-MU-alpha-Gal fluorescence, pH 4.5. activity change, negative = inhibition, % at 105 µM. 230,000 tested, under 10 active; inconclusive = small, poorly fitted or top-dose-only inhibition, or a rising curve; inactive = flat fitted curve, though single readings scatter; no compound was filed as active;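 note: 0% = full activity with enzyme and -100% = basal without enzyme; dose as in the result columns while the protocol names 77 µM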
# Rango release inh = qHTS Assay for Inhibitors of RanGTP induced Rango (Ran-regulated importin-beta cargo) - Importin beta complex dissociation; Potency, µM (doses to about 46.1 µM), for the others: top-dose activity change, negative = inhibition; Snurportin-1 (Homo sapiens) + GTP-binding nuclear protein Ran (Homo sapiens) + Importin …; Biochemical FRET Rango-importin beta, RanGTP-induced dissociation; 0.071% of 340,000 active; active means falling FRET ratio curve, often poorly fitted, with flat reads before Ran was added; inconclusive means other falling curves, or compound fluorescence or quenching; inactive means flat or rising ratio curve;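 note: potency is the fitted concentration of half-maximal effect; % of control where 0% means no effect; nearly all actives have a fitted effect of over 45% in size; -100% = wells without RanGTP and RCC1; the record marks most hits as doubtful in a second field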
#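 Rango FRET biosensor (snurportin-1 IBB flanked by N-terminal EYFP and C-terminal CFP10) at 0.1 uM, with 0.25 uM importin beta in PBS, 1mM DTT, 0.02% Tween-20, 0.1% BSA. 0.6 uM Ran, 2mM GTP and 0.2 uM RCC1 were then added for 45 min at room temperature. Inhibition read as loss of FRET rise.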
# miR-21 FLuc = qHTS Assay for Modulators of miRNAs and/orActivators of miR-21; HeLa miR-21 FLuc reporter, luciferase, 48 h; Potency, µM (highest dose often 38.3 µM), for inactives: at the highest dose reporter change, positive = more light; 340,000 tested, under 10 active; AID 2288, 2010; active = well fitted rising curve with a large enough effect; inconclusive = small, poorly fitted or top-dose-only effect; inactive = no such curve, though single readings can be large or run the other way;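 note: % of control where 0% means no effect; miR-21 action dims this reporter so a rising signal means less miR-21 action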
#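 Luminescence from a firefly luciferase reporter carrying a miR-21 binding site downstream, stably expressed under a CMV promoter in HeLa cells that make miR-21 endogenously, reports miRNA modulation after 48 h compound exposure up to approximately 40uM final.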
# Rango complex inh = qHTS Assay for Inhibitors of Rango (Ran-regulated importin-beta cargo) - Importin beta complex formation | AID 540263, 2011 | Potency, µM (series often up to 92.2 µM), without a hit: at the highest dose inhibition of complex formation | Importin subunit beta-1 (Homo sapiens), Q14974 | 0.031% of 340,000 active | Rango CFP/YFP FRET sensor + importin beta, 45 min; active = rising FRET ratio curve, often small or poorly fitted; inconclusive = mostly compound fluorescence or quenching in the first reads; inactive = flat curves in all reads;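 note: potency is the fitted concentration of half-maximal effect; 0% = DMSO wells and 100% = buffer wells lacking importin beta; nearly all actives have a fitted effect of over 15% in size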
# Target sequence (Q14974 whole entry, looked up): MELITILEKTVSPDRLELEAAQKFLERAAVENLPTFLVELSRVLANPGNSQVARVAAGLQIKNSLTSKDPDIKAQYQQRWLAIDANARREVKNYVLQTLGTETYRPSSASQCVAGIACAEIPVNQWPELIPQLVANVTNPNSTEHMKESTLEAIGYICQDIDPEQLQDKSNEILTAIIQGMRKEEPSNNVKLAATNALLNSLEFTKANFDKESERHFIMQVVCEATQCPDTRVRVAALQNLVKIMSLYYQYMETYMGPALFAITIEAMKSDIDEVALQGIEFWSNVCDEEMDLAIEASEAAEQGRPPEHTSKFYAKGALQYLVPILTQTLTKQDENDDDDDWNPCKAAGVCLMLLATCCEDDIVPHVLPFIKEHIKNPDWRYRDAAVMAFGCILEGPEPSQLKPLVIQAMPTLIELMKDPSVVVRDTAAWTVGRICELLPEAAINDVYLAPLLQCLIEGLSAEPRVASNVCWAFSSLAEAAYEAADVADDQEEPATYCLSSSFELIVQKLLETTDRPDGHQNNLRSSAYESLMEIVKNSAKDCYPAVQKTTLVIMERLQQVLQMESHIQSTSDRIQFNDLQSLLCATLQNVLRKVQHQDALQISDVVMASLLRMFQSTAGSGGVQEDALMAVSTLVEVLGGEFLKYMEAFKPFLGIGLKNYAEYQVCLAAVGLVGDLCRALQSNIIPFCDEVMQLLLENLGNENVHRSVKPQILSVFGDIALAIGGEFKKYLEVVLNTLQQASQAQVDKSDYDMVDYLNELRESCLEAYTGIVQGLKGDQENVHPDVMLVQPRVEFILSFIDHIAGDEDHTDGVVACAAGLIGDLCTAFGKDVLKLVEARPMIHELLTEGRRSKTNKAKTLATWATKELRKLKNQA
#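 Inhibition scored from the CFP 486 nm/YFP 530 nm FRET ratio 45 min after adding 0.125 microM importin beta to 50 nM Rango biosensor preincubated 5 min with compound (room temperature, PBS with DTT, Tween-20, BSA). No-importin wells as positive control.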
# * marks the source's active call; other numbers are inactive results; ? = inconclusive; . = not tested or not shown; & = joins results of further samples. Some of the compounds tested; count on the stated rates, not on these rows.
GLA inh pH 4.5	Rango release inh	miR-21 FLuc	Rango complex inh	canonical_smiles
.	11.5%	-4.7%	-3.7%	COc1ccc(N(CC(=O)NC2CCCCC2)C(=O)CNC(=O)c2cccs2)cc1
.	-12.6%	-2.7%	?	COc1ccc(CCn2c(=N)c(C(=O)NC3CCCC3)cc3c(=O)n4ccccc4nc32)cc1
-4.9	-15.3%	13.4%	-0.6%	C#CCn1c(S(=O)(=O)Cc2ccc(OC)cc2)nc(-c2ccccc2)c1-c1ccccc1
.	21.1%	.	-1.3%	CC1(C)OC2OC3C(CNCCO)OC(c4ccccc4)OC3C2O1 (configuration not stated)
3.8	-9.1%	-14.7%	5.7%	C=CCc1ccccc1OCCNCc1ccccc1
.	1.9%	3.8%	-0.3%	COc1ccccc1C1CCN(C(=O)C2CCCCC2)CC1
2.2	16.3%	-5.4%	2.7%	COCCCNC(=O)CCn1c(=O)c2ccccc2n(CC(=O)Nc2ccccc2C)c1=O
1.9	11.0%	-5.2%	0.2%	COc1cccc(CNC(=O)C2CCCN(c3nn4c(=O)cc(C)nc4s3)C2)c1OC (configuration not stated)
-4.4	3.7%	-0.2%	-3.1%	CCCCCCC(=O)N(O)C1CC(=O)N(c2ccc(Br)cc2)C1=O (configuration not stated)
-1.1	-9.9%	-2.8%	-0.8%	Cc1cc(C)n2c(Br)c(CN3CCCC(C)C3)nc2n1 (configuration not stated)
0.9	-0.4%	2.3%	-6.4%	Oc1ccc(Cl)cc1C=Nc1ccccc1Br
3.5	-16.1%	-21.3%	-1.6%	Cc1noc(C)c1CSc1ncnc2ccccc12
7.0	-5.7%	-3.5%	-1.5%	COc1ccc2c(c1)OC13CCN(C)CC1C2C(C(=O)c1ccc(F)cc1)C(=O)N3 (configuration not stated)
.	14.3%	-2.2%	0.2%	CN(C)C(=O)[C@H]1C[C@H]1[C@@H](O)[C@H](CO)NC(=O)[C@H](Cc1ccccc1)NC(=O)OC(C)(C)C
3.3	-10.1%	-2.1%	-0.8%	COCCNC(=O)CN(C(=O)Cn1nnc2ccccc21)c1ccccc1C
.	-26.2%	-3.3%	7.6%	CC(C)Oc1ccc(S(=O)(=O)N2CCCCC2)cc1NC(=O)CN1C(=O)NC(C)(c2ccccc2)C1=O (configuration not stated)
2.2	1.1%	0.0%	6.9%	Cc1cccc(C)c1NC(=O)Cn1c(=O)n(CCC(=O)NCc2ccco2)c(=O)c2sccc21
9.0	-0.7%	-15.9%	3.3%	Cc1cc(N2CCCC2)n2nc(C)nc2n1
-0.7	-9.3%	0.1%	1.1%	Cc1cc(NC(=O)C2C3C(=O)N(CC4CCCO4)C(C(=O)NCc4ccccc4)C34C=CC2(C)O4)no1 (configuration not stated)
.	-15.7%	-15.5%	-2.8%	CCOc1cccc(C(=O)Nc2ccc(NC(=O)c3ccccc3)c(C)c2)c1
6.1	2.9%	1.1%	-4.7%	Cc1ccc2nc(Cl)c(CN(C(=O)c3cnccn3)C3CCCCC3)cc2c1
.	12.0%	-0.2%	0.4%	CCOc1ccc(C(C(=O)NC(C)(C)C)N(CCOC)C(=O)CCC(=O)Nc2nccs2)cc1 (configuration not stated)
.	9.3%	-2.9%	-4.6%	COc1ccc(/C=C2\SC(=O)N(CC(=O)NC3CCS(=O)(=O)C3)C2=O)cc1 (configuration not stated)
-3.0	1.9%	-1.7%	1.7%	CCOCN(C(=O)Cn1c(C(C)O)nc2ccccc21)c1c(C)cccc1CC (configuration not stated)
.	-7.4%	-5.0%	-2.5%	CC1(C)CC2CC(C)(CN2C(=O)c2cc(-c3ccc(F)cc3)on2)C1 (configuration not stated)
.	-9.9%	-4.2%	-0.5%	Cc1cccc(N2CCN(C(=O)COc3ccc4c(C)cc(=O)oc4c3C)CC2)c1C
7.1	3.7%	-4.6%	-0.3%	Cc1cc2ccccc2c(=O)n1CC(=O)NCC(=O)N(C)C1CCCCC1
.	?	-2.0%	-2.3%	Cc1ccc(C(=O)COC(=O)C(C)N2C(=O)C3C4C=CC(C4)C3C2=O)cc1C (configuration not stated)
9.0	6.3%	0.8%	?	CC1(C)Cc2cccc(OCC(=O)N3CCN(c4ccc([N+](=O)[O-])cc4)CC3)c2O1
.	-11.6%	0.3%	1.0%	Cc1ccc(NC(=O)c2cc(CC(C)C)nc3ccccc23)cc1
7.1	7.0%	-1.4%	-0.2%	COC(=O)CNC(=O)COC(=O)/C=C/c1ccc(F)cc1
.	5.6%	-0.2%	-0.2%	O=C(NCCc1cccnc1)C1CCC(=O)N(Cc2ccc(Cl)cc2)C1 (configuration not stated)
4.3	29.5%	-7.4%	6.7%	CCCCNC(=O)CCn1c(=O)c2ccccc2n(Cc2ccccc2C)c1=O
-2.4	-26.9%	-42.5%	5.7%	COc1ccc(/C=C(\CC(=O)O)c2nc3ccccc3o2)cc1
.	13.6%	-5.7%	0.2%	COCCCNC(=O)C(C)N1c2cccc3cccc(c23)S1(=O)=O (configuration not stated)
.	0.9%	.	3.6%	O=C(COC(=O)Cc1c(F)cccc1Cl)NNC(=O)c1ccccc1
-0.4	2.4%	-10.5%	-2.1%	O=C(NCc1ccccn1)c1ccc(CNS(=O)(=O)c2ccc(F)cc2)cc1
1.9	-3.0%	-16.1%	2.8%	CC(=O)c1ccc(NC(=O)CSCC(=O)Nc2ccc3ccccc3c2)cc1
0.8	0.4%	-11.7%	0.5%	COC(=O)c1cccnc1-n1c(=O)c2cccnc2n(Cc2cccc(OC)c2)c1=O
-5.9	12.8%	-14.3%	-5.1%	COc1ccc(C(=O)Cn2nnc(-c3cccs3)n2)cc1
9.5	-3.5%	1.1%	-4.8%	O=C(O)CC(NC(=O)OCc1ccccc1)c1ccc(Br)cc1 (configuration not stated)
.	-19.8%	25.9%	0.1%	O=C(C[C@H]1C(=O)N(Cc2ccccc2)C[C@@H]1Cc1ccccc1)Nc1ccccc1
-8.1	1.0%	-5.7%	-2.8%	COc1ccc(-c2ccc(C(C)=O)cc2)cc1[C@H]1[C@@H]2C=CCC[C@@]2(C)C(=O)N1Cc1ccccc1
2.1&6.9&-24.0&9.5	-0.2%	-1.2%	?	NC12CC3CC(CC(C3)C1)C2
.	-8.9%	.	-0.2%	Cn1cnc2c(ncn2C2OC(CO)C(O)C2O)c1=S (configuration not stated)
-1.9	-8.2%	-0.9%	?	COc1cccc(N2CC(=O)Nc3c(oc4nc(-c5ccccc5)cc(C)c34)C2=O)c1
.	-4.2%	.	?	Cc1cccc(C(=O)OCC(=O)Nc2c(C)n(C)n(-c3ccccc3)c2=O)c1
.	-9.2%	.	-1.4%	CCc1noc(C)c1C(=O)N1CCN(S(=O)(=O)c2ccc(Br)cc2Cl)CC1
-0.9	0.4%	-4.3%	-2.6%	Cc1cc(NC(=O)CCN2C(=O)C3C4CCC(C4)C3C2=O)c(C)cc1Br (configuration not stated)
.	6.8%	10.3%	16.6%	Cc1ccc(CN2CCN(c3ncccn3)CC2)c(C)c1

# (more compounds)
GLA inh pH 4.5	Rango release inh	miR-21 FLuc	Rango complex inh	canonical_smiles
.	9.2%	-29.0%	-1.6%	CCOC(=O)C1CCCN(C(=O)c2ccc3oc(CCc4ccccc4)nc3c2)C1 (configuration not stated)
3.4	-4.5%	-16.0%	0.1%	Cc1nc(N)nc(Nc2ccc(C#N)cc2)c1Br
.	3.7%	.	0.3%	COc1ccc2c(C)cc(SCC(=O)NC3CCCC3)nc2c1
-7.0	13.1%	-3.1%	-0.1%	COc1ccc(CC(NC(C)=O)C(=O)N2CCN(C(=O)Nc3cccc(Cl)c3)CC2)cc1OC (configuration not stated)
-3.9	35.4%	0.0%	0.7%	Cc1ccc(NC(=O)c2cc([N+](=O)[O-])ccc2N2CCOCC2)cc1S(=O)(=O)N(C)C
-2.4	-8.8%	6.9%	-3.3%	CN1CCOc2cc(S(=O)(=O)Nc3ccc(F)cc3)ccc21
.	1.3%	4.0%&-0.8%	-0.3%	O=S(=O)(NCCS(=O)(=O)N1CCN(c2ccccc2)CC1)c1ccccc1
-0.1	21.8%	-14.2%	2.4%	O=C(Cc1cccs1)NNC(=S)NC(=O)c1ccc(F)c(F)c1
7.8	0.8%	0.0%	0.2%	CCc1ccc(N/C(N)=N/c2nc(CSc3ncccn3)cc(=O)[nH]2)cc1
.	24.3%	.	3.9%	Cc1ccccc1-c1cccc([C@@H]2C[C@H]3[C@H](CON3C)CN2C)c1
-0.6	-2.8%	0.2%	-2.7%	COCCn1c(SCC(=O)N(C)C2CCS(=O)(=O)C2)nc2ccccc2c1=O (configuration not stated)
8.5	-4.0%	3.4%	-2.2%	COc1ccc(-c2nn(-c3ccccc3)cc2/C=C(\C#N)C(N)=O)cc1[N+](=O)[O-]
.	1.0%	.	2.9%	CC1NC(C)c2c(ccc3ccccc23)O1 (configuration not stated)
?	10.8%	-39.0%	1.6%	COCCCNC(=O)CCC(=O)Nc1ccc2nc(N3CCOCC3)cc(C)c2c1
7.6	0.6%	-1.0%	5.6%	O=C(c1ccc(S(=O)(=O)N2CCC(c3nc4ccccc4s3)CC2)cc1)N1CCOCC1
-9.4	-2.4%	-7.4%	-3.0%	COc1cccc(NC(=O)CSc2nc3ccccc3c(=O)n2CCCC(=O)N2CCCC2)c1
-6.6	-1.2%	-2.6%	1.1%	Cc1cc(Cl)c(S(=O)(=O)NC(C(=O)O)c2ccccc2)cc1OCC(N)=O (configuration not stated)
0.2	-4.0%	-16.8%	1.0%	COc1ccc(/C(=C/c2ccc(OC(F)F)c(OC)c2)C(=O)O)cc1OC
-14.4	-4.8%	-43.7%	-2.1%	Nc1nc(-c2cccs2)cs1
.	0.5%	-2.7%	9.0%	CC(=O)c1ccccc1C(=O)N1CCC(n2nccc2NC(=O)C2CC2)CC1
.	-6.1%	.	1.5%	COc1ccccc1CNC(=O)CN1C(=O)NC(Cc2ccccc2)(c2ccccc2)C1=O (configuration not stated)
.	12.2%	.	1.0%	CCCCOc1c(Cl)cc(C(=O)N2CCN(CC(=O)N3CCCC3)CC2)cc1OCC
.	0.4%	.	1.0%	CCOC(=O)C1=C(COC(=O)CCOc2ccccc2C)NC(=O)NC1C (configuration not stated)
-9.2	10.3%	18.6%	2.4%	COc1cc(Nc2nc(-c3ccccc3)c3cc(C)ccc3n2)cc(OC)c1OC
.	5.0%	.	2.9%	CN(CC(=O)Nc1c(Cl)cccc1Cl)C(=O)c1ccccc1Cc1ccccc1

# Single records, from the list above. Order of values: GLA inh pH 4.5, Rango release inh, miR-21 FLuc, Rango complex inh
# C#CCn1c(S(=O)(=O)Cc2ccc(OC)cc2)nc(-c2ccccc2)c1-c1ccccc1 is entered as -4.9, -15.3%, 13.4%, -0.6%
# CC(=O)c1ccccc1C(=O)N1CCC(n2nccc2NC(=O)C2CC2)CC1 is entered as ., 0.5%, -2.7%, 9.0%

# (listing goes on)
GLA inh pH 4.5	Rango release inh	miR-21 FLuc	Rango complex inh	canonical_smiles
.	17.4%	.	-1.5%	O=C1CC2(CCN(C(=O)C3CC(=O)N(c4ccc(F)cc4)C3)CC2)Oc2ccccc21 (configuration not stated)
5.8	-0.1%	5.6%	1.4%	CCNC(=O)C(CC(C)C)NC(=O)C(CO)NC(=O)C1CCC(=O)N1 (configuration not stated)
-1.3	-8.9%	-10.2%	0.1%	CCn1c(N2CCN(CC(=O)c3c[nH]c4ccccc34)CC2)nc2c1c(=O)[nH]c(=O)n2C
3.1	4.1%	-3.3%	0.4%	COc1cccc(C(=O)N2CCN(C(=O)c3cccc(F)c3)CC2)c1
0.1	.	-2.8%	.	Cc1ccc(-c2nn(C)c(=O)c3ccccc23)cc1CNC(=O)Cn1nc(-c2ccccc2)c2ccccc2c1=O
-18.9	14.0%	-13.7%	5.1%	Cc1ccsc1/C=C1/SC(N2CC(C)OC(C)C2)=NC1=O (configuration not stated)
7.6	-9.7%	-4.3%	-1.6%	O=C(Cc1ccccc1)c1c[nH]c(C(=O)NCCCN2CCOCC2)c1
